MITF inh – MITF inhibition; inhibition, % (concentration not given with the values); TRPM1 promoter luciferase, luminescence, 24 h; AID 2240; 0.28% of 37,000 active;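 active means most replicates at 85% or more, or half of them and the mean; inconclusive means half reach 85% but not the mean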;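 further: human melanocyte line stably carrying TRPM1 promoter luciferase reporter; 0% = vehicle wells and 100% = a positive control; the first replicate is given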
YB-1 expr inh – YB-1 expression inhibition; delta delta Cp (YB-1 minus CDIP) (no concentration beside the values); U2OS, qRT-PCR YB-1 vs CDIP delta delta Cp, 16 h; active compounds read high; zero = DMSO, each unit about twofold; 0.37% of 30,000 active;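 active means delta delta Cp rounded down to an integer at or above 3, about 3 SD of DMSO wells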;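 further: higher means less YB-1 transcript or more CDIP transcript relative to DMSO; stock transfer was 100 nL into about 100 µL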
PD-1 reversal – reversal of PD-1 mediated T-cell inhibition; AID 2316; 29,000 tested, under 10 active; activation, % (test concentration not listed); primary human CD4 T cells, PD-L1 beads, CellTiter-Glo 96 h;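 active means replicate mean of 50% or more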;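 further: 0% = median vehicle wells and 100% = positive control; 100 nL library stock added to about 50 µL; numbers are from one replicate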
Shh pathway inh – Sonic Hedgehog pathway inhibition | AID 2313 | 2.1% of 22,000 active | inhibition, % (test concentration not listed) | Shh-LIGHT2 Gli-luciferase reporter, 30 h;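 active means replicate mean of 65% or more; inconclusive means mean lower but half the replicates past it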;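 further: pathway switched on by Shh-conditioned medium diluted 1 in 25 in low serum; 100 nL library stock added to about 40 µL; 0% = median of neutral wells and 100% = positive control level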
Starred values were filed as active, the others as inactive; ? = inconclusive; / = no result given. Only part of the results is shown; rates above refer to the full screens.

Molecule	MITF inh	YB-1 expr inh	PD-1 reversal	Shh pathway inh
C[C@H]1CN([C@@H](C)CO)C(=O)c2cccc(NS(C)(=O)=O)c2O[C@@H]1CN(C)C	-10	-0.0039	1.2	-67
C[C@H]1CN([C@@H](C)CO)C(=O)Cc2cc(NC(=O)CCN3CCOCC3)ccc2O[C@H]1CN(C)Cc1ccc(-c2ccccc2)cc1	-4	-0.6	/	?
C[C@@H]1CN([C@H](C)CO)C(=O)Cc2cc(NS(C)(=O)=O)ccc2O[C@@H]1CN(C)CC1CC1	-11	-0.25	/	-6
C[C@@H]1CN([C@@H](C)CO)C(=O)c2cc(NC(=O)CCC(F)(F)F)ccc2O[C@H]1CN(C)Cc1ccc(C(F)(F)F)cc1	8	-0.1	2.2	/
C[C@@H]1CN([C@H](C)CO)C(=O)c2cccc(NC(=O)c3ccc(-c4nccs4)cc3)c2O[C@@H]1CN(C)C(=O)Nc1ccc(C(F)(F)F)cc1	26	-0.023	/	3
C[C@@H]1CN([C@@H](C)CO)C(=O)c2cc(NC(=O)Nc3ccc4c(c3)OCO4)ccc2O[C@H]1CN(C)Cc1ccc(C(=O)O)cc1	0	-0.22	0.5	24
CCn1c(SCC(=O)c2cccc([N+](=O)[O-])c2)nnc1-c1ccc(Cl)cc1Cl	11	/	-2.0	/
C[C@H]1CN([C@@H](C)CO)C(=O)c2cccc(NC(=O)Nc3ccc4c(c3)OCO4)c2O[C@@H]1CN(C)S(=O)(=O)c1ccc(Cl)cc1	-26	1.5	2.0	2
Cc1noc(C)c1NC(=O)N(C)C[C@H]1Oc2ccc(NC(=O)C3CCCCC3)cc2C(=O)N([C@@H](C)CO)C[C@H]1C	-4	0.3	1.2	36
Cc1ccc2c(C(=O)Nc3sc4c(c3C(N)=O)CCCCC4)cc(-c3ccccn3)nc2c1C	10	/	-7.9	/
CNC[C@H]1Oc2c(cccc2N(C)C)C(=O)N([C@H](C)CO)C[C@H]1C	1	0.12	3.0	-23
C=C[C@@]1(C)CC(=O)[C@]2(O)[C@@]3(C)[C@@H](O)CCC(C)(C)[C@@H]3[C@H](O)[C@H](OC(=O)CCCN3CCN(C)CC3)[C@@]2(C)O1	-21	-0.64	7.9	?
CC(=O)OC(C)(C)[C@@H]1Cc2cc3ccc(=O)oc3cc2O1	-38	-0.074	/	-34
C[C@@H]1CN([C@H](C)CO)C(=O)c2cc(N(C)C)ccc2O[C@H]1CN(C)CC1CCCCC1	5	0.2	-0.2	18
C[C@H](CO)N1C[C@H](C)[C@@H](CN(C)CC2CCCCC2)Oc2ccc(NC(=O)c3ccncc3)cc2C1=O	2	-0.18	/	-4

Remaining list, next part.
Molecule	MITF inh	YB-1 expr inh	PD-1 reversal	Shh pathway inh
COc1ccc(CN(C)C[C@@H]2Oc3ccc(NC(=O)Nc4ccc5c(c4)OCO5)cc3CC(=O)N([C@@H](C)CO)C[C@@H]2C)cc1	-3	-0.16	/	16
C[C@@H]1CN([C@H](C)CO)C(=O)c2cc(NS(C)(=O)=O)ccc2O[C@@H]1CN(C)C(=O)Nc1ccccc1	-1	0.0073	0.6	/
COc1ccc(OC)c(S(=O)(=O)N(C)CC(=O)Nc2ccccc2F)c1	-22	/	0.4	/
Cc1ccc(NC(=O)Cn2nc(C)c([N+](=O)[O-])c2C)cc1C	-2	/	-0.6	/
COc1ccc([C@@H](C)C(=O)c2ccc(O)cc2O)cc1	16	-0.22	/	-4
C[C@H](CO)N1C[C@H](C)[C@H](CN(C)Cc2ccc(Cl)c(Cl)c2)Oc2c(NC(=O)Nc3ccc(C(F)(F)F)cc3)cccc2C1=O	10	0.19	-1.5	-26
C[C@@H]1CN([C@H](C)CO)C(=O)c2cc(NC(=O)Cn3cnnn3)ccc2O[C@H]1CN(C)S(=O)(=O)c1ccccc1	0	0.33	2.1	/
CCOC(=O)c1ccc(NC(=O)C2CC(C)=C(C)CC2C(=O)O)cc1 (configuration not stated)	-28	/	1.4	/
O=C(CC1NC2CCCCC2NC1=O)Nc1ccc(F)cc1 (configuration not stated)	0	/	2.5	/
C[C@@H]1CN([C@H](C)CO)C(=O)c2cc(NC(=O)NC3CCCCC3)ccc2O[C@@H]1CN(C)C(=O)Nc1cccc2ccccc12	-19	0.29	/	-19
C[C@@H]1CN([C@H](C)CO)C(=O)Cc2cc(NC(=O)c3ccncc3)ccc2O[C@H]1CN(C)Cc1ccccc1	11	0.37	-0.9	6
C/C=C/c1ccc(O)cc1C(=O)C(C)O (configuration not stated)	2	-0.24	-2.5	-24
C[C@@H]1CN([C@@H](C)CO)C(=O)c2cccc(NS(C)(=O)=O)c2O[C@H]1CN(C)Cc1ccccc1	-4	-0.025	0.3	-19
C[C@H](CO)N1C[C@H](C)[C@H](CN(C)C)Oc2ccc(NC(=O)Nc3ccc(C(F)(F)F)cc3)cc2C1=O	-18	0.26	-1.8	/
Cc1ccc(S(=O)(=O)Nc2ccc3c(c2)CC(=O)N([C@@H](C)CO)C[C@@H](C)[C@@H](CN(C)Cc2ccc(Oc4ccccc4)cc2)O3)cc1	41	0.2	-3.0	27

(cont.)
Molecule	MITF inh	YB-1 expr inh	PD-1 reversal	Shh pathway inh
C[C@H]1CN([C@@H](C)CO)C(=O)c2cc(NC(=O)CCCCCC(=O)Nc3ccccc3N)ccc2O[C@H]1CN(C)S(=O)(=O)c1ccc(Cl)cc1	18	-0.086	-1.2	/
C[C@H](CO)N1C[C@H](C)[C@H](CN(C)C(=O)Nc2ccc3c(c2)OCO3)Oc2ccc(NC(=O)c3ccncc3)cc2CC1=O	3	0.074	-1.8	-5
CNC[C@@H]1Oc2ccc(NS(C)(=O)=O)cc2C(=O)N([C@H](C)CO)C[C@@H]1C	-1	-0.02	1.2	-35
O=C(Nc1ccccc1)/C(=C/c1ccccc1)NC(=O)c1ccccc1	7	0.21	1.0	-19
Cc1noc(C)c1NC(=O)Nc1cccc2c1O[C@@H](CN(C)C(=O)Nc1ccc3c(c1)OCO3)[C@H](C)CN([C@@H](C)CO)C2=O	-2	-0.21	-0.2	-26
N#Cc1cccc(CSc2nnc(SCc3cccc(C#N)c3)s2)c1	21	0.38	0.7	68*
C[C@H](CO)N1C[C@H](C)[C@H](CN(C)Cc2ccc(Oc3ccccc3)cc2)Oc2ccc(NS(=O)(=O)c3cn(C)cn3)cc2CC1=O	3	0.44	-1.3	6
COc1cc(CCC(O)CC(O)CCc2ccc(O)c(O)c2)ccc1O (configuration not stated)	37	-0.18	-0.9	-4
COc1ccc(NC(=O)N(C)C[C@H]2Oc3ccc(NC(=O)Cc4ccccc4)cc3C(=O)N([C@@H](C)CO)C[C@@H]2C)cc1	-7	0.18	-1.7	-24
CC(C)NC(=O)N(C)C[C@@H]1Oc2ccc(NC(=O)Cc3cn(C)c4ccccc34)cc2CC(=O)N([C@H](C)CO)C[C@@H]1C	-1	0.0063	0.8	12
COc1ccc(NC(=O)N(C)C[C@H]2Oc3c(NC(=O)c4nc5ccccc5s4)cccc3C(=O)N([C@@H](C)CO)C[C@@H]2C)cc1	1	-0.35	-1.1	-2
CCN1CCN(C(=O)N[C@@H](C(=O)N[C@@H]2C(=O)N3[C@@H]2SC(C)(C)[C@@H]3C(=O)O)c2ccccc2)C(=O)C1=O	-35	-0.56	/	11
CC(C)NC(=O)Nc1ccc2c(c1)CC(=O)N([C@H](C)CO)C[C@H](C)[C@H](CN(C)C(=O)Nc1ccc(F)cc1)O2	-12	-0.23	/	77*
O=C1c2nc3cc(-c4ccccc4)[nH]n3c(=O)c2CN1C1CCCCC1	-16	-0.82	2.4	/
S=C(NCCc1ccccc1)N1CCc2ccccc21	-54	-0.69	-0.7	-22

Additional compounds
Molecule	MITF inh	YB-1 expr inh	PD-1 reversal	Shh pathway inh
CC(=O)[C@H]1CCC2C3CCC4=CC(=O)CC[C@]4(C)C3CC[C@@]21C (some centres not stated)	17	0.15	/	1
C[N+]1(C)C2CC[C@H]1CC(OC(=O)C(O)c1ccccc1)C2 (some centres not stated)	-14	0.48	/	-8
C=CCSc1nnc(-c2ccccc2NC(=O)CC)c(=O)[nH]1	0	/	2.1	/
O=C(Nc1cc(C(F)(F)F)cc(C(F)(F)F)c1)C(=S)N1CCCCC1	5	0.45	2.1	14
C[C@@H]1CN([C@@H](C)CO)C(=O)c2cc(NC(=O)Nc3ccc4c(c3)OCO4)ccc2O[C@H]1CN(C)S(C)(=O)=O	-1	-0.22	-0.3	-61
COc1ccc(S(=O)(=O)N(C)C[C@H]2Oc3ccc(NC(=O)Cn4cnnn4)cc3CC(=O)N([C@@H](C)CO)C[C@H]2C)cc1	-5	-0.26	-1.0	-19
CN1C(=O)C(=Cc2cccn2-c2ccc(N(C)C)cc2)C(=O)N(C)C1=S	15	-0.65	-0.5	-21
Cc1ccc(S(=O)(=O)N[C@H](Cc2ccccc2)C(=O)CCl)cc1	16	0.029	-9.4	9
C[C@@H]1CCCCO[C@H](CN(C)Cc2ccncc2)[C@@H](C)CN([C@H](C)CO)C(=O)c2cc(NC(=O)C3CCCCC3)ccc2O1	-9	-0.27	0.4	/
COc1ccc([N+](=O)[O-])cc1CNCCO	4	/	0.4	/
COc1ccc(NC(=O)N(C)C[C@@H]2Oc3ccc(NS(=O)(=O)c4c(C)noc4C)cc3C(=O)N([C@H](C)CO)C[C@H]2C)cc1	1	0.13	3.0	/
C[C@@H]1CN([C@H](C)CO)C(=O)c2cccc(NS(C)(=O)=O)c2O[C@H]1CN(C)Cc1ccncc1	-4	-0.048	1.6	-28
C[C@H](CO)N1C[C@H](C)[C@@H](CN(C)Cc2ccccc2)Oc2ccc(NS(=O)(=O)c3ccc(Cl)cc3)cc2C1=O	2	1.2	-0.5	6
O=C1CN(C(=O)/C=C/c2ccccc2)C(c2ccccc2)c2cc(Br)ccc2N1 (configuration not stated)	34	-0.16	-3.0	/
CC(=O)Nc1ccc(-c2nnc(SCC(=O)n3c4c(c5ccccc53)CCCC4)n2C)cc1	1	/	1.2	/

The listing continues:
Molecule	MITF inh	YB-1 expr inh	PD-1 reversal	Shh pathway inh
COC(=O)C1=C(C)Nc2c(c(=O)n(C)c(=O)n2C)C1c1cccc(OCc2ccccc2)c1 (configuration not stated)	7	-0.11	-1.0	?
Cc1cc(-c2ccccn2)n[nH]c1=O	-32	0.14	-0.1	-10
Cc1ccc(S(=O)(=O)Nc2ccc3c(c2)C(=O)N([C@H](C)CO)C[C@H](C)[C@H](CN(C)S(=O)(=O)c2c(C)noc2C)O3)cc1	-9	0.2	/	-21
C[C@H]1CN([C@@H](C)CO)C(=O)Cc2cc(NS(=O)(=O)c3cccs3)ccc2O[C@H]1CN(C)Cc1ccc(C(=O)Nc2ccccc2N)cc1	37	-0.24	-4.2	/
C[C@@H]1CCCCO[C@@H](CN(C)C(=O)CCCN(C)C)[C@@H](C)CN([C@H](C)CO)C(=O)c2cc(NC(=O)Nc3ccc(C(F)(F)F)cc3)ccc2O1	3	0.28	0.3	-20
COc1ccc(S(=O)(=O)Nc2ccc3c(c2)CC(=O)N([C@H](C)CO)C[C@@H](C)[C@H](CN(C)C(=O)Nc2c(C)noc2C)O3)cc1	-21	-0.49	-1.3	-8
C[C@@H]1CN([C@@H](C)CO)C(=O)c2cc(NS(=O)(=O)c3cccs3)ccc2O[C@@H]1CN(C)S(=O)(=O)c1ccccc1	-4	0.16	0.4	/
C[C@@H]1CC[C@]2(C(=O)O[C@@H]3O[C@H](CO)[C@@H](O)[C@H](O)[C@H]3O)CC[C@]3(C(=O)O)C(=CCC4[C@@]5(C)CC[C@H](OC6OC[C@@H](O)[C@H](O)[C@H]6O)C(C)(C)C5CC[C@]43C)C2[C@H]1C (some centres not stated)	7	0.47	0.7	-9
C[C@@H]1CN([C@H](C)CO)C(=O)c2cc(NC(=O)Cn3cnnn3)ccc2O[C@H]1CN(C)Cc1ccc(Cl)c(Cl)c1	-2	0.26	2.2	/
COc1ccc([N+](=O)[O-])cc1N(CC(=O)Nc1cccc(Br)c1)S(C)(=O)=O	-18	/	1.4	/

Rewritten with two lines to a compound: six of the compounds above
Values in the order – MITF inh	YB-1 expr inh	PD-1 reversal	Shh pathway inh
- C[C@@H]1CN([C@H](C)CO)C(=O)c2cc(NC(=O)Cn3cnnn3)ccc2O[C@H]1CN(C)Cc1ccc(Cl)c(Cl)c1
  -2	0.26	2.2	/
- COC(=O)C1=C(C)Nc2c(c(=O)n(C)c(=O)n2C)C1c1cccc(OCc2ccccc2)c1 (configuration not stated)
  7	-0.11	-1.0	?
- C[C@@H]1CN([C@@H](C)CO)C(=O)c2cc(NS(=O)(=O)c3cccs3)ccc2O[C@@H]1CN(C)S(=O)(=O)c1ccccc1
  -4	0.16	0.4	/
- C[C@H]1CN([C@@H](C)CO)C(=O)Cc2cc(NS(=O)(=O)c3cccs3)ccc2O[C@H]1CN(C)Cc1ccc(C(=O)Nc2ccccc2N)cc1
  37	-0.24	-4.2	/
- Cc1ccc(S(=O)(=O)Nc2ccc3c(c2)C(=O)N([C@H](C)CO)C[C@H](C)[C@H](CN(C)S(=O)(=O)c2c(C)noc2C)O3)cc1
  -9	0.2	/	-21
- COc1ccc(S(=O)(=O)Nc2ccc3c(c2)CC(=O)N([C@H](C)CO)C[C@@H](C)[C@H](CN(C)C(=O)Nc2c(C)noc2C)O3)cc1
  -21	-0.49	-1.3	-8

Source: PubChem
